High-throughput results as filed in PubChem BioAssay.
Rango-impB inh = qHTS Assay for Inhibitors of Rango (Ran-regulated importin-beta cargo) - Importin beta complex formation; AID 540263, 2011; Importin subunit beta-1 (Homo sapiens), Q14974; Potency, µM (series often up to 92.2 µM), for the others: at the top dose inhibition of complex formation; Rango CFP/YFP FRET sensor + importin beta, 45 min; 340,000 compounds, 0.031% hits; active = rising FRET ratio curve, often small or poorly fitted; inconclusive = mostly compound fluorescence or quenching in the first reads; inactive = flat curves in all reads;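 also: potency is read from the fitted curve at half-maximal effect; 0% = DMSO wells and 100% = buffer wells lacking importin beta; nearly all actives have a fitted effect of over 15% in size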
Target sequence (Q14974 whole entry, looked up): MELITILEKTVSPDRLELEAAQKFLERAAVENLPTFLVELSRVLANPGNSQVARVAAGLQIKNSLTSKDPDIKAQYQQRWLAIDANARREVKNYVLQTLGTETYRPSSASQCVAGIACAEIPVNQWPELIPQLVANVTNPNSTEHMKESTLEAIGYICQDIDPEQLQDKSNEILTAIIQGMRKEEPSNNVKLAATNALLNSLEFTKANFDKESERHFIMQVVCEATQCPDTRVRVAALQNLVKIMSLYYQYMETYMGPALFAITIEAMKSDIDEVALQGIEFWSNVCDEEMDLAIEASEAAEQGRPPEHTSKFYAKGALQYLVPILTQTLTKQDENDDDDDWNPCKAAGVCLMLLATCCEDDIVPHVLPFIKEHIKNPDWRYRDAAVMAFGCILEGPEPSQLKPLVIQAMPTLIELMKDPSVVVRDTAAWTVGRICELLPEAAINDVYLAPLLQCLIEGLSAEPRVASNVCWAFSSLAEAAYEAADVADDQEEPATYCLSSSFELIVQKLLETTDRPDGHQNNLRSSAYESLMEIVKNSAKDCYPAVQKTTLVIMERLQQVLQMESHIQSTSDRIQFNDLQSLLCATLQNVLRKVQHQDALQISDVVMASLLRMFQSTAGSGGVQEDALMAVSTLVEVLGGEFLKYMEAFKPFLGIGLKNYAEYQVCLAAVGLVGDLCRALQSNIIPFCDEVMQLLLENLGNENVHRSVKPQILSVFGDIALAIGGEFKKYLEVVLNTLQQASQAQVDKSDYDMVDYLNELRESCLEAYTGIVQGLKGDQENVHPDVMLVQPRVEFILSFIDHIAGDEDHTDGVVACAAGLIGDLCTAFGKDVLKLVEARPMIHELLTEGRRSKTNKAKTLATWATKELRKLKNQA
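FRET biosensor (snurportin 1 IBB flanked by EYFP and cerulean), 50 nM, with compound 5 min, then 0.125 microM importin beta in PBS, 1 mM DTT, 0.02% Tween-20, 0.1% BSA. CFP/YFP ratio read after 45 min at room temperature; pre-read flags interference.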
GLA inh pH 4.5 = qHTS Assay for Inhibitors of Human alpha-Galactosidase at pH 4.5. purified enzyme, 4-MU-alpha-Gal fluorescence, pH 4.5. Alpha-galactosidase A (Homo sapiens), P06280. activity change, negative = inhibition, % at 105 µM. AID 1467, 2008. 230,000 tested, under 10 active; inconclusive = small, poorly fitted or top-dose-only inhibition, or a rising curve; inactive = flat fitted curve, though single readings scatter; no compound was filed as active;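 also: 0% = full activity with enzyme and -100% = basal without enzyme; dose as in the result columns while the protocol names 77 µM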
Rango release inh = qHTS Assay for Inhibitors of RanGTP induced Rango (Ran-regulated importin-beta cargo) - Importin beta complex dissociation. Potency, µM (titrated, usually from 46.1 µM), for the others: top-dose activity change, negative = inhibition. AID 540253, 2011. Biochemical FRET Rango-importin beta, RanGTP-induced dissociation. 340,000 compounds, 0.071% hits; active means falling FRET ratio curve, often poorly fitted, with flat reads before Ran was added; inconclusive means other falling curves, or compound fluorescence or quenching; inactive means flat or rising ratio curve;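 also: potency is read from the fitted curve at half-maximal effect; % of control where 0% means no effect; nearly all actives have a fitted effect of over 45% in size; -100% = wells without RanGTP and RCC1; the record marks most hits as doubtful in a second field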
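Rango (0.1 uM)–importin beta (0.25 uM) complex; RanGTP-RCC1 trigger; 45 min RT; CFP/YFP FRET read.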
miR-21 FLuc = qHTS Assay for Modulators of miRNAs and/orActivators of miR-21 | HeLa miR-21 FLuc reporter, luciferase, 48 h | Potency, µM (doses to about 38.3 µM), without a hit: top-dose reporter change, positive = more light | 340,000 tested, under 10 active; active = well fitted rising curve with a large enough effect; inconclusive = small, poorly fitted or top-dose-only effect; inactive = no such curve, though single readings can be large or run the other way;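 also: % of control where 0% means no effect; miR-21 action dims this reporter so a rising signal means less miR-21 action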
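HeLa cells stably expressing CMV-driven firefly luciferase with a downstream miR-21 binding sequence, endogenously expressing miR-21, were treated with titrations (up to about 40uM final) for 48 hours at 37 degree Celsius. Luciferase luminescence was read after lysis.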
The depositor's hits bear a star; ? = inconclusive; . = no result given. Only part of the results is shown; count on the stated rates, not on these rows.

Rango-impB inh	GLA inh pH 4.5	Rango release inh	miR-21 FLuc	Molecule
?	6	?	-1%	Cc1ccc(S(=O)(=O)c2c(N)n(/N=C/c3ccco3)c3nc4ccccc4nc23)cc1
0.0%	.	-1%	4%	Cc1cc(NC(=O)CCC(=O)N(Cc2ccco2)C(C(=O)NC2CCCC2)c2ccccc2)no1 (configuration not stated)
0.6%	-3	19%	4%	COc1ccc(CCC(=O)OCC(=O)Nc2ccc(C)c(S(=O)(=O)N(C)C)c2)cc1
0.1%	15	-2%	2%	COC(CNC(=O)c1ccc2nc(-c3ccccc3)c(-c3ccccc3)nc2c1)OC
0.7%	2	0%	-2%	Cc1cc([N+](=O)[O-])ccc1NCc1ccccc1[N+](=O)[O-]
-1.9%	-3	9%	2%	COc1ccccc1-n1nnnc1SCC(=O)Nc1cc(C)on1
6.2%	-1	17%	-1%	O=C(CC(c1ccccc1)c1ccccc1)NCC1CCCO1 (configuration not stated)
4.9%	.	-6%	-9%	NC(=O)c1ccccc1OCC(=O)N1CCc2ccccc2C1
-2.0%	.	4%	.	CN(C(=O)COC(=O)CNC(=O)c1ccccc1F)C1CCCCC1
?	-2	?	4%	COC(=O)c1cc2c(-c3ccccc3)c(C)c3ccccn3c-2c1C(=O)OC
-2.1%	.	-2%	.	CC(=NNC(=S)N1CCN(C2CCCCCC2)CC1)c1ccccn1
-0.9%	5	12%	-8%	Cn1cccc1Cc1nnc(SCC(=O)Nc2nc3ccccc3s2)n1CCc1ccccc1
-1.1%	-11	1%	4%	COCCCC1CCN(Cc2cn[nH]c2-c2cc(OC)c(OC)c(OC)c2)CC1
-5.2%	9	1%	-21%	CCc1nnc(NC(=O)[C@@H](NC(=O)c2ccc(OC)cc2)C(C)C)s1
4.1%	-6	-3%	-26%	COC(=O)c1ccc(Sc2ccc(C)cc2)c(N)c1

Rango-impB inh	GLA inh pH 4.5	Rango release inh	miR-21 FLuc	Molecule
2.1%	0	19%	-16%	Cc1cc(N2CCN(S(=O)(=O)Cc3ccccc3)CC2)n2ncnc2n1
0.3%	.	-20%	-15%	COc1ccccc1CNC(=O)CN(C)Cc1ccc(SC)cc1
1.2%	.	-11%	.	Cc1ccc(S(=O)(=O)N2[C@@H](c3ccc(C(C)C)cc3)C(C(=O)O)=C[C@H]2C(C)(C)C)cc1
2.7%	-13	-18%	-1%	C/C(=N/NC(=O)CNC(=O)c1ccncc1)c1ccc(Cl)cc1
?	.	14%	.	CC(C)CC1Nc2ncnc(N3CCN(c4ccccc4)CC3)c2N(Cc2ccccc2)C1=O (configuration not stated)
-6.6%	-1	-22%	2%	COc1cc(/C=N/NC(=O)C(=O)NCC2CCCO2)cc(Cl)c1O (configuration not stated)
1.9%	5	2%	-1%	O=C(c1ccc2c(c1)OCCO2)C1CCN(C(=O)c2ccc(F)c(F)c2)CC1
-1.9%	.	0%	.	O=C1[C@@H](Oc2ccccc2)[C@@H](c2ccccc2)N1c1ccccc1
3.5%	.	-15%	-64%	CCOC(=O)c1ccc2[nH]c3c(c2c1)CCCC3NC=O (configuration not stated)
2.2%	6	20%	16%	CCOc1cc(CNCC(C)C)cc(Cl)c1OCc1ccccc1
0.5%	.	-14%	12%	COc1cccc(NC(=O)Cn2cc(C=O)c3ccccc32)c1
-2.3%	-4	-12%	0%	CCOC(=O)C1CCN(Cc2nc3ccc(Cl)cc3n2CCO)CC1
0.7%	-14	-4%	0%	NC(=O)CSC1=Nc2ccccc2C2=NC(CC(=O)NCc3cccs3)C(=O)N12 (configuration not stated)
-1.4%	5	3%	4%	CCCCCn1c(=S)[nH]c2cc(C(=O)N3CCCC3)ccc2c1=O
-0.9%	.	9%	.	CC(=O)c1ccc(N(CC(=O)NC2CCS(=O)(=O)C2)S(=O)(=O)c2ccc(C)cc2)cc1 (configuration not stated)

Rango-impB inh	GLA inh pH 4.5	Rango release inh	miR-21 FLuc	Molecule
1.3%	8	-9%	0%	Cc1onc(-c2ccccc2Cl)c1C(=O)NC1CCS(=O)(=O)C1 (configuration not stated)
-2.1%	9	20%	-6%	CN(C)C(=O)c1cn(N(C)c2ncc(C(F)(F)F)cc2Cl)c(=O)c2ccccc12
1.5%	.	1%	-17%	O=C(Nc1nc2c(F)cc(F)cc2s1)c1ccco1
5.0%	-7	-16%	1%	Cc1ccc(-n2c(SCC(=O)Nc3cccc(S(=O)(=O)NC4=NCCCCC4)c3)nc3ccccc3c2=O)cc1
0.9%	.	10%	.	Cc1cccc(-c2nn(-c3ccccc3)cc2C(=O)N(C)CC(=O)Nc2ccc(N3CCOCC3)cc2)c1
-8.6%	4	0%	-4%	Cc1ccc(C)c(-n2c(C)cc(/C=N/NC(=O)c3c(C)nc4cc(C)ccn34)c2C)c1
-1.1%	-6	2%	-2%	COc1ccc(Cl)cc1NS(=O)(=O)c1ccc(S(=O)(=O)N2CCCC2)cc1
-1.8%	8	-16%	?	CC1=CC(C)(C)N2C(=O)C(=O)c3cc(OC(=O)c4ccco4)cc1c32
-0.5%	7	8%	-16%	Cc1csc(SCC(=O)Nc2ncc(Cl)c(C)c2Cl)n1
-1.3%	0	9%	-20%	O=[N+]([O-])c1ccc(Cl)cc1CNc1ccc(F)c(F)c1
0.2%	8	-16%	-2%	COc1ccccc1NC(=O)c1cc(C(=O)O)ccc1C(=O)O
?	0	?	-65%	Cc1snc2sc(C(=O)c3ccc(F)cc3)c(N)c12
5.9%	10	-11%	-1%	CCN(C(=O)COC(=O)c1cc(=O)[nH]c2ccccc12)C1CCS(=O)(=O)C1 (configuration not stated)
-1.0%	.	11%	.	Nc1ccc(C(=O)N2CCN(S(=O)(=O)c3ccc(Br)cc3)CC2)cc1[N+](=O)[O-]
-1.7%	-13	-1%	4%	CCCCn1c(N)c(N(CC)C(=O)CSc2nnnn2-c2cc(C)ccc2C)c(=O)[nH]c1=O

Rango-impB inh	GLA inh pH 4.5	Rango release inh	miR-21 FLuc	Molecule
7.5%	.	-1%	-1%	OCCOc1ccc(CN2CCN(CCCc3ccccc3)C(CCO)C2)cc1 (configuration not stated)
?	.	2%	.	O=C(O)CC(CC(=O)O)n1cccc1
4.0%	6	13%	-6%	CSc1ccccc1NC(=O)c1ccccc1C
-1.2%	.	18%	-6%	COc1ccc(Cl)cc1NC(=O)COc1ccc(S(=O)(=O)N2CCOCC2)cc1C
-3.5%	-11	0%	0%	Cc1ccc2oc(=O)n(Cc3ccccc3OC(C)C)c2c1
3.4%	.	0%	-16%	Clc1ccc(CNCCCSc2ncccn2)cc1Cl
-2.6%	5	14%	-7%	COc1ccc(NC(=O)CC2Sc3ncnn3C2=O)cc1 (configuration not stated)
-0.3%	.	-6%	.	O=C(c1ccc(N2CCCCC2)c([N+](=O)[O-])c1)N1CCN(S(=O)(=O)c2ccccc2)CC1
7.8%	.	31%	-2%	Cc1cc(C)cc(NS(=O)(=O)c2cccs2)c1
1.3%	-10	15%	-6%	COc1ccc(/C=C/C(=O)NCc2ccccn2)cc1OC
0.8%	2	-12%	-3%	CC(C)CNS(=O)(=O)c1ccc(OCC(=O)Nc2ccc3c(c2)OCO3)c(Cl)c1
-1.3%	.	-3%	-1%	CCN1CCN(CCCNC(=O)c2ccc(CS(=O)c3ccc(Br)cc3)o2)CC1 (configuration not stated)
-2.7%	-5	-12%	?	Cn1c(=O)c2c(nc(CN3CCN(Cc4ccccc4)CC3)n2Cc2ccc(Cl)cc2)n(C)c1=O
3.5%	4	7%	-3%	CC(=O)c1cc2c(cc1NC(=O)c1ccco1)OCCO2
0.0%	.	2%	-8%	COc1ccc(S(=O)(=O)N2CCOC2CNC(=O)C(=O)NCc2ccncc2)cc1OC (configuration not stated)

Rango-impB inh	GLA inh pH 4.5	Rango release inh	miR-21 FLuc	Molecule
4.6%	-6	16%	-11%	O=C(c1ccc2c(c1)OCO2)N1CCN(c2ccccc2)CC1
-2.4%	.	12%	.	O=C(NCc1ccccc1F)c1ccc(S(=O)(=O)N2CCCCCC2)cc1
0.6%	.	7%	.	CC[C@]12c3[nH]c4ccccc4c3CCN1C(=O)C(CC(=O)NCC13CC4CC(CC(C4)C1)C3)C[C@@H]2C(=O)N1CCN(C(=O)c2ccco2)CC1 (some centres not stated)
1.2%	2	7%	-5%	CCN(CC)C(=O)C1CCCN(Cc2ccccc2)C1 (configuration not stated)
7.3%	-29	0%	13%	Cc1[nH]c2ccccc2c1SCc1nnc(SCc2ccccc2)n1C
1.4%	.	15%	-1%	Cc1nc(-c2ccc(S(=O)(=O)Nc3ccc(S(N)(=O)=O)cc3)cc2)co1
1.1%	-4	35%	1%	OCC(O)/C=N/Nc1nc(N2CCCCC2)nc(N2CCCCC2)n1 (configuration not stated)
5.9%	.	9%	-3%	O=C(NCc1ccccc1Cl)C1CCN(S(=O)(=O)c2ccc(-n3cnnn3)cc2)CC1
-0.2%	-1	-11%	-22%	CCCOc1ccc(N2C(=O)CC(N3CCN(c4ccccc4OC)CC3)C2=O)cc1 (configuration not stated)
0.4%	-13	-5%	0%	Cc1ccc(NC(=O)c2c(-c3c(F)cccc3Cl)noc2C)cc1F
-2.2%	-1	21%	-20%	O=c1c2sccc2n(Cc2cc(=O)n3ccccc3n2)c(=O)n1-c1ccccc1
-0.4%	1	-4%	-4%	COc1ccccc1N1C(=O)C2CCC(c3ccccc3)CC2C1=O (configuration not stated)
-0.7%	.	-9%	.	Cc1ccc(SCC(=O)OC(C)C(=O)N2CCc3ccccc32)cc1 (configuration not stated)
1.6%	.	0%	.	COc1ccc(S(=O)(=O)N2CCN(C(=O)c3ccc(=O)[nH]n3)CC2)cc1OC
1.7%	8	0%	15%	CC(=O)Oc1ccc(N2C(=O)C3C4C=CC(CO)(O4)C3C2=O)cc1 (configuration not stated)

Rango-impB inh	GLA inh pH 4.5	Rango release inh	miR-21 FLuc	Molecule
-2.5%	.	-25%	-4%	CCOc1ccc(C(C)=O)cc1COC(=O)C(C)N=C1NS(=O)(=O)c2ccccc21 (configuration not stated)
?	10	?	-34%	COc1cccc(N=c2oc3ccc(OC)cc3cc2-c2nc3ccccc3[nH]2)c1
3.4%	3	2%	2%	CCOC(=O)c1cc(NC(=O)CSCCO)ccc1Cl
0.4%	.	24%	.	CC(=O)Nc1ccc(S(=O)(=O)NCC2(N3CCOCC3)CCCCC2)cc1
?	-7	10%	0%	CCCCN=C1CC(C)(C)CC(=O)/C1=C(/O)CCC
0.2%	6	0%	2%	O=C(CCc1ccc(S(=O)(=O)N2CCOCC2)cc1)N1CCc2ccccc2C1
0.9%	1	9%	4%	CC(=O)Nc1ccc(-c2nnc(SCC(=O)c3ccc4c(c3)Cc3ccccc3-4)n2C)cc1
-0.2%	.	0%	.	Cc1cccnc1NC(=O)CCCNC(=O)c1ccc(Cl)cc1
-1.1%	3	9%	0%	N=C1C(c2ccccc2)=C(O)CN1c1cccc(S(=O)(=O)NCc2ccco2)c1
-1.7%	1	7%	-8%	CCNC(=O)NC(=O)COC(=O)CNC(=O)COc1ccccc1
-0.3%	13	17%	2%	O=C(C1CC1)N(CCN(C(=O)C1CC1)c1ccccc1)c1ccccc1
-0.9%	.	-16%	.	O=C(CN1C(=O)C2CC=CCC2C1=O)Nc1nc(-c2ccc(F)cc2)cs1 (configuration not stated)

Entries of single compounds as entered above.
`Cc1cccc(-c2nn(-c3ccccc3)cc2C(=O)N(C)CC(=O)Nc2ccc(N3CCOCC3)cc2)c1` is entered as Rango-impB inh = 0.9%; GLA inh pH 4.5 = .; Rango release inh = 10%; miR-21 FLuc = .
`COc1ccc(Cl)cc1NC(=O)COc1ccc(S(=O)(=O)N2CCOCC2)cc1C` is entered as Rango-impB inh = -1.2%; GLA inh pH 4.5 = .; Rango release inh = 18%; miR-21 FLuc = -6%

Some of the entries above in a different format.
smiles	Rango-impB inh	GLA inh pH 4.5	Rango release inh	miR-21 FLuc
COc1cccc(N=c2oc3ccc(OC)cc3cc2-c2nc3ccccc3[nH]2)c1	?	10	?	-34%
CCOC(=O)c1cc(NC(=O)CSCCO)ccc1Cl	3.4%	3	2%	2%
CC(=O)Nc1ccc(S(=O)(=O)NCC2(N3CCOCC3)CCCCC2)cc1	0.4%	.	24%	.
CCCCN=C1CC(C)(C)CC(=O)/C1=C(/O)CCC	?	-7	10%	0%
